Assay outcomes (PubChem BioAssay)
AmpC nodet inh: AmpC beta-lactamase inhibition, detergent-free assay; P00811; Potency, µM (series often up to 28.7 µM), for the others: top-dose activity change, negative = inhibition; AmpC nitrocefin hydrolysis, absorbance 480 nm, no detergent; potencies from a single point are estimates; actives 1.8% (n = 71,000); active = falling curve, for most hits resting on a single point; inconclusive = weak or doubtful change; inactive = flat or rising curve; also: % of control where 0% means no effect; about half of the hits show no inhibition at the top dose; a quarter of the inactives give rising signals
Target sequence (P00811 whole entry, looked up): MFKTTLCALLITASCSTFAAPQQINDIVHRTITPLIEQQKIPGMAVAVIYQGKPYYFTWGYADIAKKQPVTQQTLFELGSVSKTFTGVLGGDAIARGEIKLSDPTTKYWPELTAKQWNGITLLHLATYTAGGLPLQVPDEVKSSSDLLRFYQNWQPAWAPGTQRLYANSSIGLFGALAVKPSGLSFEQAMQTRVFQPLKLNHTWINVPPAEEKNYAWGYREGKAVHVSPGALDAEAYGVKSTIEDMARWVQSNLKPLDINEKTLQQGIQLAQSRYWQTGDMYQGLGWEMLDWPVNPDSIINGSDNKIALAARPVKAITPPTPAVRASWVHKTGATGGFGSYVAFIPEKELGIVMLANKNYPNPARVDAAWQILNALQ
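Enzyme, pH 7.0 phosphate. Compound titrations were pre-incubated with AmpC for 15 min at room temperature before nitrocefin (stock 800 uM) addition; product formation was recorded at 480 nm every 20 s for 4 min.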
An asterisk follows results filed as active; ? = inconclusive; [ ] = remark or other dose. Potency is read from the fitted curve at half-maximal effect. Only part of the results is shown; rates above refer to the full screens.

SMILES	AmpC nodet inh
O=C(c1ccco1)N1CCN(C(c2ccc(Cl)cc2)c2nnnn2CC2CCCO2)CC1 (stereo not drawn)	110%
C/[N+]([O-])=C1\Cc2ccccc2C1=O	28%
Cc1c(NC(=O)C(C)N2CC(C)OC(C)C2)c(=O)n(-c2ccccc2)n1C (stereo not drawn)	-2%
CCOC(=O)c1cccc(NC(=O)c2cccnc2)c1	0%
CC(C)Cn1c(CN2C(=O)c3ccccc3C2=O)nc2ccccc2c1=O	6%
CCN(CC)CCn1c(=S)[nH]c2ccc(Cl)cc2c1=O	-18%
NC(=O)SCC(=O)Nc1ccc(Cl)c(Cl)c1	5µM*
CN1CCN(/C=N/c2c(C#N)cnn2Cc2ccccc2)CC1	11%
Cc1cccc(CNc2cc(-c3c(C)noc3C)ncn2)c1	9%
CCCc1cc(C(=O)Nc2cccc(C(C)=O)c2)no1	-5%
O=C(Nc1ccc(N2CCOCC2)cc1)C1CCN(S(=O)(=O)Cc2ccccc2)CC1	-9%
CCCCn1nnnc1SCC(=O)Nc1cccc(C)n1	-2%
Cn1c2c(c3ccccc31)CC/C2=N\O	2%
O=C(c1csnn1)N1CCC[C@@]2(CCN(Cc3ccccc3)C2)C1	34%
CN(C)CCN=Cc1c(O)n(C2CCCCCC2)c(=O)[nH]c1=O	3%
COc1ccc(N2C(=O)CCC(C(=O)N3CCCCCC3)C2c2ccc(OC)c(OC)c2)cc1 (stereo not drawn)	67%
CCOC(=O)Cn1c(CCC(=O)O)ccc1-c1ccc(F)cc1	37%
O=C(CCC1=NS(=O)(=O)c2ccccc2N1)NC1CCCCCCC1	0%
CCOc1ccc(CCNS(=O)(=O)c2cccc3nsnc23)cc1OCC	8%
CN(C)c1nc(N)c(C(=O)N=C(N)N)nc1Cl	-5%
Cc1cc(=O)n2[nH]c(-c3ccccc3)cc2n1	-7%
O=C(CSc1ncccc1C(=O)O)NCc1ccc(F)cc1	-6%
Cc1cc(NS(=O)(=O)Cc2ccccc2)no1	0%
NCCCS(=O)(=O)O	-10%
CCSC1(SCC)N=C(N)C2(C#N)C(c3ccccc3)NC(C)=CC12C#N (stereo not drawn)	-3%
CCOCC(=O)Nc1ccc(S(=O)(=O)N2CCOCC2)cc1	2%
CC(C)N1CCC2(CC1)NC(CO)(CO)CO2	-14%
O=C1C(c2ccccn2)=[N+]([O-])c2ccccc21	-1%
CC(C)c1c(O)nc(SCC(=O)Nc2ccc3c(c2)CCC3)[nH]c1=O	-18%
O=S(=O)(c1cc(C(F)(F)F)ccc1Cl)N1CCCCCC1	-10%

Random excerpt: 14 records from the list.
SMILES	AmpC nodet inh
CCOc1ccc(CCNS(=O)(=O)c2cccc3nsnc23)cc1OCC	8%
O=C1C(c2ccccn2)=[N+]([O-])c2ccccc21	-1%
CC(C)Cn1c(CN2C(=O)c3ccccc3C2=O)nc2ccccc2c1=O	6%
Cn1c2c(c3ccccc31)CC/C2=N\O	2%
CCOCC(=O)Nc1ccc(S(=O)(=O)N2CCOCC2)cc1	2%
O=C(c1ccco1)N1CCN(C(c2ccc(Cl)cc2)c2nnnn2CC2CCCO2)CC1 (stereo not drawn)	110%
Cc1cccc(CNc2cc(-c3c(C)noc3C)ncn2)c1	9%
COc1ccc(N2C(=O)CCC(C(=O)N3CCCCCC3)C2c2ccc(OC)c(OC)c2)cc1 (stereo not drawn)	67%
CCOC(=O)Cn1c(CCC(=O)O)ccc1-c1ccc(F)cc1	37%
CN(C)CCN=Cc1c(O)n(C2CCCCCC2)c(=O)[nH]c1=O	3%
CC(C)N1CCC2(CC1)NC(CO)(CO)CO2	-14%
O=C(CSc1ncccc1C(=O)O)NCc1ccc(F)cc1	-6%
CCCCn1nnnc1SCC(=O)Nc1cccc(C)n1	-2%
Cc1cc(=O)n2[nH]c(-c3ccccc3)cc2n1	-7%

Going on with the list.
SMILES	AmpC nodet inh
CCCCC(=O)Nc1ccc(NC(=O)C2CC2)cn1	4%
CCc1c(C)c2ccc(OCC(=O)OC(C)C)c(C)c2oc1=O	12%
c1ccc(N2CCN(c3nc4cc5c(cc4s3)OCO5)CC2)cc1	-17%
COC(=O)C(C#N)C(c1cccnc1)c1c(C)[nH][nH]c1=O (stereo not drawn)	-3%
O=C(NCC(=O)N(c1ccc2c(c1)OCO2)C(C(=O)NC1CCCC1)c1cccs1)c1ccco1 (stereo not drawn)	5%
COc1cccc(CN2CCN(C(=O)c3cccs3)CC2)c1OC	18%
CCOC(=O)C1=C(C)OC(N)=C(C(=O)OCC)C1c1ccncc1 (stereo not drawn)	11%
CCc1nc2nc(C)cc(Nc3cccc(C(F)(F)F)c3)n2n1	32%
O=C(CN1CCCCC1)N1CCN(C(=O)CN2CCCCC2)CC1	-8%
COC(=O)/C=c1\sc2n(c1=O)C(C)=CC(C)(C)N=2	2%
O=C(NCCc1ccccc1)C1c2ccccc2C(=O)N1C1CC1 (stereo not drawn)	-2%
O=P(/C(=N/O)N1CCOCC1)(N1CCOCC1)N1CCOCC1	-6%
CC12CCC(C(=O)NCc3ccco3)(OC1=O)C2(C)C (stereo not drawn)	2%
CCCn1cnc2cc(NCc3cccc(OC)c3O)ccc21	14%
COCc1cc(=O)n2[nH]c(C)cc2n1	5%
CCSc1ccccc1C(=O)Nc1cccc(OC)c1	-6%
Cn1c(=O)oc2cc(S(=O)(=O)N3CCC(C(=O)N4CCN(c5ccccc5)CC4)CC3)ccc21	12%
CCCCCCCCCCCCCC(=O)O[C@H](CC(=O)O)C[N+](C)(C)C	176%
CCOc1cc(N2CCOCC2)c(OCC)cc1NC(=O)Cc1cn2ccsc2n1	?
Cc1cccc(C)c1N1CCN(S(=O)(=O)c2ccc(F)cc2)CC1	10%
NCCNC(=S)S	-4%[5.75 µM]
O=C1CN(C(=O)c2cnccn2)c2ccccc2N1	-13%
Cc1noc(C(=O)NCc2cccnc2)c1Cl	2%
CCOC(=O)CC(C#N)c1c[nH]c2ccccc12 (stereo not drawn)	-12%
O=c1cc[nH]c2cc(C(F)(F)F)ccc12	8%
C=CCn1c(SCC(=O)NCC(=O)OCC)nnc1-c1cccc(OC)c1	8%
CCN(CC)C(=O)CSc1nnc(CCNC(=O)OC(C)(C)C)o1	24%
COc1cc2c(cc1OC)C(c1ccc(N)cc1)=NNC(=O)C2	18%
O=S(=O)(Nc1nccs1)c1ccc(NS(=O)(=O)c2cccs2)cc1	-19%
O=C(CSc1nnc(-c2ccccn2)n1Cc1ccccc1)NC1CCCC1	43%

Rewritten with bars between the fields: 4 of the compounds above
Structure | AmpC nodet inh
O=C1CN(C(=O)c2cnccn2)c2ccccc2N1 | -13%
Cc1noc(C(=O)NCc2cccnc2)c1Cl | 2%
CCOC(=O)CC(C#N)c1c[nH]c2ccccc12 (stereo not drawn) | -12%
O=c1cc[nH]c2cc(C(F)(F)F)ccc12 | 8%

Going on with the list:
SMILES	AmpC nodet inh
CCOC(=O)N1CCC(NC(=O)c2cnn3c2NC(c2ccco2)CC3C(F)(F)F)CC1 (stereo not drawn)	104%
OCC1CO1 (stereo not drawn)	-5%
COc1ccc(C2C(C(=O)N3CCN(C)CC3)c3ccccc3C(=O)N2C2CCCCC2)cc1 (stereo not drawn)	87%
COc1cc(C(=O)OCCCN2CCCN(CCCOC(=O)c3cc(OC)c(OC)c(OC)c3)CC2)cc(OC)c1OC	113%
O=C(C1CCN(S(=O)(=O)c2cccnc2)CC1)N1CCN(c2ccccc2Cl)CC1	82%
Nc1nnc(SCc2cccc(C(F)(F)F)c2)s1	5%
Cc1cccc(CNc2nc(-c3c(C)noc3C)nc3ccccc23)c1	-4%
Cc1noc(C)c1C(=O)N1CCC2(CCCN(c3ncccn3)C2)CC1	3%
CCOC(=O)c1ccc2c(c1)C1C=CCC1C(C(=O)O)N2 (stereo not drawn)	-13%
CCC(=NCCN1CCNCC1)C1=C(O)CC(C)(C)CC1=O	17%
c1ccc(C(Cc2nc(-c3cccnc3)no2)c2ccccc2)cc1	39%
O=S(=O)(Cc1ccccc1)N1CCN(Cc2ccccc2)CC1	13%
CCCN(CCC)C(=O)CCS(=O)(=O)c1cccc2nsnc12	5%
CSc1nc(SCC(=O)NCc2ccco2)c2c3c(sc2n1)CN(C)CC3	89%
O=C(c1nc2ncccn2n1)N1CCc2ccccc2C1	0%
Cc1nc(NCc2ccc3c(c2)OCO3)c2oc3ccccc3c2n1	58%
CC(=O)Nc1ccc(N/C=C/C(=O)C(C)(C)C)cc1	15%
Cc1cc(C)nc(NC(=O)CSc2nn(C)c(=S)s2)n1	6%
Cc1ccc(NC(=O)CCNS(=O)(=O)c2ccc3c(c2)oc(=O)n3C)cc1	-8%
Brc1ccccc1-c1nnc(CSc2nnnn2-c2ccccc2)o1	-14%
C1=C(N2CCOCC2)/C(=C/c2nc3ccccc3[nH]2)CC1	-6%
CCOC(=O)N1CCC(NC(=O)c2cc(C(=O)Nc3cccc(OC)c3)ccc2CO)CC1	76%
CCOC(=O)c1sc(NC(=O)c2ccc(C)o2)nc1C	7%
CCNC(=O)CCc1nc(-c2ccc(C(C)(C)C)cc2)no1	76%
O=C(O)c1cnn2c1NC(c1ccc(F)cc1)CC2C(F)(F)F (stereo not drawn)	1%
O=C(/C=C\Nc1ccccn1)c1ccccc1	-21%
CCn1c(COc2ccc(C)cc2)nnc1SCC(=O)Nc1cc(OC)ccc1OC	84%
CCn1c(SCC(=O)Nc2ccc(OCc3ccccc3)cc2)nnc1-c1ccco1	50%
Cc1cc(NC(=O)CSc2ccc3nnc(-c4ccccc4)n3n2)no1	-9%
COc1ccc(C2=NOC(C(=O)NC(C)(C)C)C2)cc1 (stereo not drawn)	3%

Single entries from the entries so far:
Reading for `O=C(O)c1cnn2c1NC(c1ccc(F)cc1)CC2C(F)(F)F` (stereo not drawn) under AmpC nodet inh: 1%
Reading for `CCOC(=O)N1CCC(NC(=O)c2cc(C(=O)Nc3cccc(OC)c3)ccc2CO)CC1` under AmpC nodet inh: 76%

Next records.
SMILES	AmpC nodet inh
Cn1nccc1C(=O)Nn1cnnc1	1%
Cc1cc(NC(=O)COC(=O)CCCOc2ccc(Cl)cc2C)no1	-9%
O=C(O)c1ccc(CSCc2ccccc2F)o1	-10%
O=C(NCCc1c[nH]c2ccccc12)c1cc(S(=O)(=O)N2CCCCC2)ccc1N1CCOCC1	69%
Cn1cc(-c2nc3cnc(N4CCNCC4)nc3n(CCc3ccccc3)c2=O)c2ccccc21	46%
COc1cc2c(c(OC)c1OC)-c1ccc(O)c(=O)cc1[C@H](N)CC2	35%[12.8 µM]
COc1cc(C(=O)NC2CC3CCCC(C2)N3CC(=O)Nc2ccccc2)cc(OC)c1OC (stereo not drawn)	131%
Cn1c(SCC(=O)NCc2ccco2)nc2ccccc2c1=O	2%
CCC1CCCCN1C(=O)COc1cc(=O)n(C)c2ccccc12 (stereo not drawn)	36%
CCCCCn1c(N2CCN(c3cccc(Cl)c3)CC2)nc2c1c(=O)[nH]c(=O)n2C	16%
CCOC(=O)CSc1nc2sc3c(c2c(=O)[nH]1)CCCC3	-1%
CCCc1cc(C(=O)Nc2nccs2)cs1	0%
CCOC(=O)c1cccc(NC(=O)Nc2cc(OC)ccc2OC)c1	-13%
COc1ccc2nc(NCCCNC(=O)c3cc(OC)c(OC)c(OC)c3)c(C#N)cc2c1	80%
CC(C)NC(=O)N1CC[C@@]2(CCCN(C(=O)c3cccc(F)c3)C2)C1	-10%
O=S(=O)(c1ccc(Br)s1)N1CCN(c2ccccc2)CC1	-12%
CCOC(=O)c1cc(-c2ccncc2)nc2c1c(C)nn2-c1ccccn1	153%
Cc1cc(NC(=O)COC(=O)CCC(=O)c2ccc(F)cc2)no1	0%
NC(=O)c1ncn([C@@H]2O[C@H](CO)[C@@H](O)[C@H]2O)n1	-6%
CS(=O)(=O)NCc1ccc(C(=O)NCCOc2ccccc2)cc1	4%
Cc1sc2ncnc(SCC(=O)NC(=O)NCc3ccco3)c2c1C	-20%
Cc1c(NC(=O)Nc2cccc(Cl)c2)c(=O)n(-c2ccccc2)n1C	-10%
CCN1CCN(C(=O)CCCCCn2c(=O)[nH]c3cc(C(=O)OC)ccc3c2=O)CC1	21%
CCc1nnc(NC(=O)CCC(=O)N2CCN(C3CCCCC3)CC2)s1	-1%
Cn1c(SCCCC(=O)c2ccccc2)nnc1-c1ccncc1	19%
CCCc1cc(C(N)=O)c(NC(=O)c2ccoc2C)s1	-10%
COc1cccc(-c2nnc3sc(-c4ccccn4)nn23)c1	39%
COc1ccc(P2(=O)Nc3ccccc3N2)cc1	-4%
CCCCn1c(NCCO)nc2ccccc21	3.2µM*[single pt active]
COc1cc(NC(=O)NCCN2CCN(c3ccc(Cl)cc3)CC2)ccc1C	24%
N=C(N)SCCON1C(=O)c2ccccc2C1=O	3%[5.75 µM]
Cc1ccc(-c2nc3ccccc3[nH]2)cc1NC(=O)c1ccco1	-12%
Cn1ccc(C(=O)OCC(=O)c2ccccc2)n1	-8%
